# Screening results: PubChem BioAssay, Broad Institute
# DUX4 txn inh – inhibitors of DUX4-driven ZSCAN4 reporter expression, primary screen, 293T cells, Gaussia and Italica luciferase. activity change, negative = inhibition, % (concentration not given with the values). 293T-iDUX4 ZSCAN4-Gaussia luciferase reporter, 24 h; hits give low values. actives 0.8% (n = 37,000);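 active = -10% or lower and over 25 points stronger than a control reporter; inconclusive = -10% or lower with a smaller gap; inactive = above -10%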;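 note: 0% = median of neutral control wells and -100% = median of positive control wells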
# DUX4 txn inh difference – further read-out of DUX4 txn inh, marked with its call; Gaussia minus Italica difference, %; measured here: selective DUX4 reporter inhibition;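 worked out from the two reporters; negative = selective loss of the DUX4 reporter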
# DUX4 txn inh control – also measured in DUX4 txn inh; calls as there; activity change, negative = inhibition, %; measured here: Italica tet-on control reporter;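 0 = neutral control and -100 = positive control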
# * marks the source's active call; other numbers are inactive results; ? = inconclusive; nt = no result given; & = joins results of further samples. Only part of the results is shown; count on the stated rates, not on these rows.
no. | molecule | DUX4 txn inh | DUX4 txn inh difference | DUX4 txn inh control
1 | O=C(C[C@H]1CC[C@@H](NC(=O)NC2CCCCC2)[C@H](CO)O1)NCc1ccccc1 | 4 | 4 | 0.5
2 | CC[C@H]1C/C=C\C[C@@H](c2ccc(F)cc2)NC(=O)CCC(=O)N1 | 4 | -1 | 5.4
3 | O=C(C[C@@H]1C[C@H]2c3cc(NC(=O)NC4CCCCC4)ccc3O[C@H]2[C@H](CO)O1)NCC(F)(F)F | -1 | 1 | -1.9
4 | C[C@H]1CN([C@@H](C)CO)C(=O)c2cc(C#Cc3ccccc3F)cnc2O[C@H]1CN(C)C(=O)C1CCC1 | 1 | 1 | -0.8
5 | C[C@@H]1CN([C@@H](C)CO)C(=O)c2cc(C#CC3(O)CCCC3)cnc2O[C@H]1CN(C)S(=O)(=O)c1cccc(F)c1 | 0 | 0 | 0.5
6 | CCC(=O)N1C[C@@H](O)COC[C@@H]2O[C@H](CC(=O)NC)CC[C@H]21 | -3 | -5 | 1.5
7 | CN(C)C(=O)c1ccc(-c2ccc3c(c2)[C@@H]2[C@@H](CCN2S(=O)(=O)c2cn(C)cn2)[C@H](CO)N3)cc1 | 9 | 3 | 6.0
8 | O=C(C[C@@H]1CC[C@H]2[C@@H](COC[C@@H](O)CN2Cc2cccc(Cl)c2)O1)NCc1cccc(F)c1 | 0 | 0 | 0.1
9 | COC(=O)[C@H]1[C@H](CO)[C@H]2Cn3c(ccc(C4=CCCC4)c3=O)[C@H]2N1C(=O)Cc1cccnc1 | 9 | 8 | 0.7
10 | CN1c2ccc(-c3ccc(F)cc3)cc2[C@H]2[C@H](CCN2S(=O)(=O)c2cccc(F)c2)[C@@H]1CO | ? | nt | nt
11 | C[C@H](CO)N1C[C@H](C)[C@H](CN(C)C(=O)C2CCCCC2)OCc2cnnn2CCCC1=O | -2 | -5 | 3.5
12 | C[C@H]1CN([C@@H](C)CO)C(=O)CCCn2nncc2CO[C@@H]1CN(C)C(=O)c1ccncc1 | 3 | 0 | 2.4
13 | COC(=O)C[C@H]1CC[C@H]2[C@@H](COc3ccc(NC(=O)c4ccc(F)c(F)c4)cc3C(=O)N2C)O1 | 6 | 4 | 2.2
14 | N#C[C@H]1[C@H](c2ccc(-c3cccc(F)c3)cc2)[C@H](CO)N1C(=O)CN1CCOCC1 | 2 | 2 | 0.1
15 | N[C@@H]1CC[C@H](CCn2cc(-c3ccccn3)nn2)O[C@H]1CO | 2 | -1 | 3.1
16 | C[C@@H]1CCCCO[C@@H](CN(C)C(=O)CCCN(C)C)[C@H](C)CN([C@@H](C)CO)C(=O)c2cc(NC(=O)Nc3ccc4c(c3)OCO4)ccc2O1 | 3 | 6 | -3.5
17 | Cc1ccccc1S(=O)(=O)N1CC[C@@H]2[C@@H](CO)Nc3ccc(-c4cccc(F)c4)cc3[C@@H]21 | ? | nt | nt
18 | N#C[C@H]1[C@@H](c2ccc(C#Cc3ccc(F)cc3)cc2)[C@H](CO)N1C(=O)C1CCCC1 | 0 | 2 | -2.3
19 | CCC(=O)N1CC2(C1)[C@H](c1ccc(-c3ccccc3)cc1)[C@@H](CO)N2S(C)(=O)=O | 3 | 4 | -0.5
20 | O=C(NC[C@@H]1[C@@H](c2ccccc2)[C@H](CO)N1Cc1ccccn1)C1CC1 | 0 | 13 | -14
21 | C[C@H]1CN([C@@H](C)CO)C(=O)c2c(c3ccccc3n2C)-c2ccccc2CO[C@@H]1CN(C)C(=O)c1cc(Cl)cc(Cl)c1 | ? | nt | nt
22 | COc1ccc(S(=O)(=O)N[C@@H]2CC[C@@H](CCn3cc(-c4ccccc4F)nn3)O[C@H]2CO)cc1 | -5 | -3 | -1.5
23 | O=C(C1CCCC1)N1CC2(C1)[C@H](c1ccccc1)[C@@H](CO)N2CC1CCCC1 | -9 | -8 | -0.9
24 | CCC(=O)N1[C@@H]2CN(S(=O)(=O)c3ccccc3F)c3ccccc3[C@@H]2[C@@H]1CO | 1 | -2 | 3.0
25 | C[C@@H]1CN([C@H](C)CO)C(=O)c2ccccc2-c2ccccc2CO[C@@H]1CN(C)S(=O)(=O)c1ccccc1C#N | 6 | 17 | -11
26 | O=C(C[C@@H]1C[C@H]2c3cc(NC(=O)CC4CC4)ccc3O[C@H]2[C@H](CO)O1)NCC(F)(F)F | 6 | 1 | 5.2
27 | C[C@@H]1CN([C@@H](C)CO)S(=O)(=O)c2ccc(-c3ccccc3F)cc2O[C@H]1CN(C)C(=O)C1CC1 | 0 | -1 | 0.3
28 | CN(C)C(=O)[C@H]1[C@H](CO)[C@H]2Cn3c(ccc(-c4ccccc4)c3=O)[C@@H]1N2Cc1ccccn1 | 1 | -4 | 4.7
29 | O=C(NCC1CC1)[C@H]1[C@H](CO)[C@H]2Cn3c(ccc(-c4ccccc4F)c3=O)[C@@H]1N2Cc1ccncc1 | -1 | -3 | 2.3
30 | CC(=O)N1[C@H](CO)[C@@H](c2ccccc2)[C@@H]1CNC(=O)CN1CCOCC1 | -1 | 0 | -0.3

# 5 entries picked at random from the list so far, as already listed:
no. | molecule | DUX4 txn inh | DUX4 txn inh difference | DUX4 txn inh control
7 | CN(C)C(=O)c1ccc(-c2ccc3c(c2)[C@@H]2[C@@H](CCN2S(=O)(=O)c2cn(C)cn2)[C@H](CO)N3)cc1 | 9 | 3 | 6.0
4 | C[C@H]1CN([C@@H](C)CO)C(=O)c2cc(C#Cc3ccccc3F)cnc2O[C@H]1CN(C)C(=O)C1CCC1 | 1 | 1 | -0.8
27 | C[C@@H]1CN([C@@H](C)CO)S(=O)(=O)c2ccc(-c3ccccc3F)cc2O[C@H]1CN(C)C(=O)C1CC1 | 0 | -1 | 0.3
28 | CN(C)C(=O)[C@H]1[C@H](CO)[C@H]2Cn3c(ccc(-c4ccccc4)c3=O)[C@@H]1N2Cc1ccccn1 | 1 | -4 | 4.7
29 | O=C(NCC1CC1)[C@H]1[C@H](CO)[C@H]2Cn3c(ccc(-c4ccccc4F)c3=O)[C@@H]1N2Cc1ccncc1 | -1 | -3 | 2.3

# Complete entries, quoted from the list. Order of values: DUX4 txn inh	DUX4 txn inh difference	DUX4 txn inh control
# C[C@H]1CN([C@@H](C)CO)C(=O)c2c(c3ccccc3n2C)-c2ccccc2CO[C@@H]1CN(C)C(=O)c1cc(Cl)cc(Cl)c1 is listed as ?	nt	nt
# CC(=O)N1[C@H](CO)[C@@H](c2ccccc2)[C@@H]1CNC(=O)CN1CCOCC1 is listed as -1	0	-0.3

# More results:
no. | molecule | DUX4 txn inh | DUX4 txn inh difference | DUX4 txn inh control
31 | COc1ccc2c3c([nH]c2c1)[C@H](CO)NCC31CCN(C(=O)Cc2cccnc2)CC1 | 22 | 9 | 13
32 | CCCC#Cc1ccc([C@@H]2[C@H]3CN(Cc4cncnc4)CCCCN3[C@H]2CO)cc1 | 7 | -1 | 7.8
33 | CO[C@H]1CC[C@@H]2CCOc3c(C#N)cccc3C(=O)N(C)CCCC(=O)N(C)C[C@H]1O2 | -2 | 2 | -4.0
34 | CCCNC(=O)N1CC2(CCN(S(=O)(=O)c3ccccc3)CC2)c2c(n(C)c3cc(OC)ccc23)[C@@H]1CO | -10 | 4 | -13
35 | COc1cccc(CNC(=O)C[C@H]2CC[C@H]3[C@H](COc4ccc(NC(C)=O)cc4C(=O)N3C)O2)c1 | -3 | -1 | -2.2
36 | CCC(=O)N1CC(=O)N2[C@H](CO)[C@@H](c3ccc(-c4cccnc4)cc3)[C@@H]2C1 | 7 | -1 | 8.5
37 | C[C@H](CO)N1C[C@H](C)[C@H](CN(C)C(=O)c2ccccc2)Oc2ncc(C#Cc3ccccc3)cc2C1=O | 0 | -2 | 1.9
38 | CN1C(=O)c2cc(NC(=O)Nc3ccc(F)cc3)ccc2OC[C@H]2O[C@H](CC(=O)NC3CCC3)CC[C@@H]21 | 3 | 6 | -2.7
39 | COc1cccc(CN(C)C[C@H]2OCc3ccccc3-c3c(n(C)c4ccccc34)C(=O)N([C@H](C)CO)C[C@H]2C)c1 | -9 | -9 | 0.1
40 | CC(=O)N1[C@@H](CO)[C@@H](c2ccccc2)C12CN(Cc1nccs1)C2 | 4 | -3 | 6.4
41 | CCNC(=O)c1cc2c(c(-c3cccc(-c4cccc(C(=O)N(C)C)c4)c3)n1)[C@H](CCO)N([S@@](=O)C(C)(C)C)C2 | 0 | 2 | -1.9
42 | O=C(c1ccccn1)N1C[C@H]2[C@@H](c3ccccc31)[C@H](CO)N2C(=O)c1ccccn1 | 2 | -1 | 2.8
43 | C[C@@H]1C(=O)N[C@@H](c2ccc(F)cc2)CC=CC[C@H](C)Oc2ccccc2C(=O)N1C (mixture of isomers) | -1 | 2 | -2.3
44 | C[C@@H]1CN([C@H](C)CO)C(=O)c2cccc(NC(=O)Nc3ccc(C(F)(F)F)cc3)c2O[C@@H]1CN(C)S(=O)(=O)c1cn(C)cn1 | -3 | -4 | 1.7
45 | CCCNC(=O)N1C[C@H](C)[C@@H](OC)CN(C)C(=O)c2cc(NS(=O)(=O)CC(F)(F)F)ccc2OC[C@H]1C | -4 | -2 | -1.9
46 | COc1cccc(C#Cc2ccc3c(c2)[C@H]2[C@H](CCN2S(=O)(=O)c2ccc(C)cc2)[C@@H](CO)N3)c1 | 5 | 8 | -3.3
47 | C[C@H]1CCCCO[C@H](CN(C)CC2CCCCC2)[C@@H](C)CN([C@@H](C)CO)C(=O)c2cc(NC(=O)C3CCCCC3)ccc2O1 | -1 | -4 | 2.5
48 | O=S(=O)(c1ccccc1)N1CC[C@@H]2[C@H](CO)Nc3ccc(C#Cc4ccccc4F)cc3[C@@H]21 | -6 | -8 | 2.0
49 | C[C@H]1CC(=O)N[C@@H](c2ccccc2)C/C=C\C[C@H](c2ccc3c(c2)OCO3)NC1=O | -6 | 0 | -5.0
50 | CO[C@H]1CN(C)C(=O)c2cc(NC(=O)Nc3ccc(Cl)c(Cl)c3)ccc2OC[C@H](C)NC[C@@H]1C | ? | -2&-5 | -2.8&-1.7
51 | C/C=C/c1ccc(C2[C@@H]3CN(C(=O)Nc4ccc(C(F)(F)F)cc4)C[C@H]2N3)cc1 (stereo not given in full) | ? | nt | nt
52 | COc1ccc(S(=O)(=O)Nc2ccc3c(c2)[C@@H]2C[C@H](CC(=O)NCC4CC4)O[C@@H](CO)[C@@H]2O3)cc1 | 2 | -2 | 4.6
53 | N#Cc1cccc(-c2ccc(C3[C@@H]4CN(C(=O)Nc5ccccc5)C[C@H]3N4)cc2)c1 (stereo not given in full) | ? | 11 | -13
54 | O=C(C[C@@H]1C=C[C@@H](NC(=O)C2CCC2)[C@H](CO)O1)NCCCN1CCOCC1 | 2 | 2 | -0.2
55 | CN1c2ccc(Br)cc2[C@@H]2[C@@H](CCN2S(=O)(=O)c2cccc(F)c2)[C@@H]1CO | 2 | 10 | -8.2
56 | O=C(Nc1ccc(Cl)cc1)N1C[C@H]2[C@@H](c3ccccc31)[C@@H](CO)N2C(=O)C1CC1 | 3 | 2 | 1.2
57 | CNC(=O)C[C@H]1CC[C@@H]2[C@H](COC[C@@H](O)CN2Cc2ccc(Cl)c(Cl)c2)O1 | 5 | 7 | -2.6
58 | C[C@@H]1CCCCO[C@H](CN(C)C(=O)CCC(F)(F)F)[C@H](C)CN([C@H](C)CO)C(=O)c2cc(NS(=O)(=O)c3cccs3)ccc2O1 | 2 | 2 | -0.2
59 | CCCNC(=O)N1CC2(C1)CN(C(=O)NC(C)C)[C@@H](CO)c1c2c2ccc(OC)cc2n1C | 18 | 9 | 8.7
60 | C[C@H](CO)N1C[C@H](C)[C@H](CN(C)Cc2ccccc2C(F)(F)F)OCc2cnnn2CCCC1=O | ? | nt | nt
61 | CCCC(=O)N1C[C@H]2[C@@H](c3ccccc31)[C@@H](CO)N2C(=O)Nc1ccccc1 | 5 | 0 | 4.9
62 | COc1ccccc1CNC(=O)C[C@H]1CC[C@@H]2[C@H](COc3ccc(NC(=O)Nc4ccc(F)c(F)c4)cc3C(=O)N2C)O1 | -1 | -2 | 1.1
63 | O=C(C[C@H]1CC[C@H]2[C@@H](COC[C@H](O)CN2S(=O)(=O)c2ccc(F)cc2)O1)NCC1CC1 | 6 | -1 | 6.8
64 | Cc1ccc(-c2ccc([C@@H]3[C@@H](CO)N4C(=O)CN(C(=O)c5ccc(F)cc5)C[C@H]34)cc2)cc1 | -2 | -1 | -1.0
65 | C[C@@H]1CCCCO[C@@H](CN(C)C(=O)NC2CCCCC2)[C@@H](C)CN([C@@H](C)CO)C(=O)c2cc(NC(=O)Cc3ccccc3)ccc2O1 | -1 | -2 | 0.8
66 | O=C(Nc1ccccc1F)N[C@H]1CC[C@H](CC(=O)N2CCCCC2)O[C@@H]1CO | 0 | 3 | -2.6
67 | O=C(C[C@@H]1C[C@H]2c3cc(NC(=O)Nc4ccccc4F)ccc3O[C@H]2[C@H](CO)O1)NCc1ccc2c(c1)OCO2 | ? | nt | nt
68 | C[C@H](CO)N1C[C@H](C)[C@H](CN(C)C(=O)Nc2cccc3ccccc23)Oc2c(NC(=O)C3CCOCC3)cccc2C1=O | -1 | -3 | 1.6
69 | CCc1cnc(N2[C@H](C#N)[C@H](c3ccc(C#CCC4CCCC4)cc3)[C@H]2CO)s1 | 0 | -1 | 1.1
70 | CCCN1C[C@@H](C)[C@@H](OC)CN(C)C(=O)c2cc(NC(=O)CC)ccc2OC[C@@H]1C | -3 | -5 | 1.7
71 | CCC(=O)N1CC(=O)N2[C@H](CO)[C@H](c3ccc(-c4ccccc4F)cc3)[C@@H]2C1 | 9 | 3 | 5.1
72 | COc1ccc2c3c([nH]c2c1)[C@@H](CO)N(C(=O)CC1CC1)CC31CCN(C(=O)CC2CC2)CC1 | 13 | 11 | 1.3
73 | O=C(C[C@@H]1CC[C@@H](NC(=O)Nc2cc(F)ccc2F)[C@@H](CO)O1)Nc1ccc(-c2ccccc2)cc1 | -5 | -8 | 2.8
74 | C/C=C/c1ccc([C@H]2[C@@H](CO)N(C(=O)C3CC3)[C@H]2CNC(=O)CN(C)C)cc1 | -8 | -11 | 2.5
75 | CNC[C@H]1Oc2ccc(NC(=O)NC3CCCCC3)cc2CC(=O)N([C@H](C)CO)C[C@H]1C | -5 | -2 | -3.1
